WNV NS2B-NS3 inh: inhibitors of West Nile virus NS2B-NS3 protease; P06935; WNV NS2B-NS3 protease, fluorogenic substrate Ex360/Em465; active compounds read low; z-score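 (tested at a level between 10 and 100 µM)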; 65,000 compounds, 0.18% hits; AID 577;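 active means z-score at -3 or under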;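 further: score is relative to mean and spread of the compound wells of a plate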
Target sequence (P06935 1371-1501 limits assumed): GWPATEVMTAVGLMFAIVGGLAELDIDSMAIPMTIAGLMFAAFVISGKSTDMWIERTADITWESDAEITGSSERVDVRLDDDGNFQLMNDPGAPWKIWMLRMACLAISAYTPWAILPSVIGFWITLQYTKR
Target sequence (P06935 1502-1679 limits assumed): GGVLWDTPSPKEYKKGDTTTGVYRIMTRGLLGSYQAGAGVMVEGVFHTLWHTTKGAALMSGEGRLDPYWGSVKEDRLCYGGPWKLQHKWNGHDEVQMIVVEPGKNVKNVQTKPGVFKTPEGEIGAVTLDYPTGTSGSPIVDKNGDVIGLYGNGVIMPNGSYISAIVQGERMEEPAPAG
MT1-MMP reporter: inhibitors of MT1-MMP promoter transcription, cell-based, luciferase reporter, luminescence (AID 618) | calls from a first round at 10 µM; hits with a dose series show EC50 in µM | MT1-MMP promoter luciferase reporter cells, luminescence | 87,000 compounds, 0.62% hits;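 active means over half of the reporter light lost at 10 µM or EC50 under 50 µM; inactive means the rest and hits that failed the dose series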;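 further: actives suppress MT1-MMP promoter-driven transcription so potencies describe inhibitors; HT1080 fibrosarcoma cells; overnight exposure; toxic or luciferase-blocking compounds were not removed from the actives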
Hsc70 ATP site: Hsc70 inhibitors, probe displacement, primary screen, biochemical, fluorescence polarization (AID 568). 83,000 tested, under 10 active. Hsc70 fluorescence polarization, probe displacement; higher % means a stronger effect; strong numbers were not always called active. displacement, % at 20 µM, or IC50 in µM where a hit was titrated;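 active means displacement above 50% without optical interference and an IC50 on retest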;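 further: ATPase domain with a fluorescein-tagged ATP probe; 0% = vehicle and 100% = excess ADP; read after one hour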
* = called active by the depositor; i = inactive; x = not tested or not shown. These rows are one share of the data; the hit share may differ from the screen's.

Order of results – WNV NS2B-NS3 inh, MT1-MMP reporter, Hsc70 ATP site
> CCNc1nc(OC)nc(Oc2ccc(C(=O)OC)cc2)n1
    x, i, -1.8%
> COCCN(C(=O)c1cccc(OC)c1)c1nnc(-c2ccncc2)s1
    0.93, i, -4.3%
> O=c1[nH]c2c(s1)C(c1ccco1)C1C3CCC(C3)C1S2 (stereo unspecified)
    -0.4, i, -2.7%
> CSc1nc(N)nc(SCCS(=O)(=O)c2ccc(Cl)cc2)c1C#N
    0.04, i, 0.2%
> COc1ccc(C(=O)COC(=O)CSCc2c(C)noc2C)cc1OC
    0.12, i, -5.2%
> C=CCN(CC=C)c1nc2ccccc2nc1C(C#N)C(=O)OC(C)C (stereo unspecified)
    -0.4, i, 11%
> O=C(c1ccc(N2CCCC2=O)cc1)N1CCN(c2ccccc2)CC1
    0.3, i, 0.4%
> Cc1cccc(OCc2n[nH]c(=S)o2)c1
    0.49, i, -1.8%
> Fc1ccc(CSc2nnc(-c3cccs3)o2)cc1
    0.97, i, -4.8%
> CCOC(=O)N1CC=C2C(C#N)=C(N)C(C#N)(C#N)[C@H](c3cccs3)C2C1 (stereo partly specified)
    x, i, 1.5%
> CCOc1ccc(S(=O)(=O)NCCCN2CCOCC2)cc1
    x, i, -3.2%
> CCC(=O)Nc1nonc1-c1nc2ccccc2n1N(C(=O)CC)C(=O)CC
    -0.02, i, -6.9%
> CCC(C)(C)NC(=O)C(c1ccc(OC)cc1)N(Cc1cccs1)C(=O)CCC(=O)Nc1cc(C)on1 (stereo unspecified)
    x, i, 4.9%
> O=C(c1ccc(F)cc1)N1CCN(Cc2ccccc2Br)CC1
    -1.8, i, 3.0%
> O=C(NCCN1CCCC1)C1(S(=O)(=O)c2ccc(Cl)cc2)CC1
    0.51, i, -2.2%
> COC(=O)c1ccc2c(c1)NC(=O)C(N1CCCC1)S2 (stereo unspecified)
    -0.61, i, -16%
> CCCCn1c(=O)[nH]c(=O)c2c1nc(COC(=O)c1c(C)noc1C)n2CCC
    2.7, i, -6.7%
> CCN1CCN(CCCNC(=O)C(NC(=O)C2CCC(C)CC2)C(C)C)CC1 (stereo unspecified)
    0.11, i, 6.0%
> COCCN(C(=O)CCC(=O)Nc1cccnc1)C(C(=O)NC1CCCCC1)c1ccccc1 (stereo unspecified)
    -0.29, i, -4.6%
> COC(=O)c1ccc(NC(=O)C2CCCN2S(=O)(=O)c2ccc(F)cc2)cc1 (stereo unspecified)
    0.99, i, 0.4%
> Cc1ccc(O)c(-c2cc(-c3ccccc3F)[nH]n2)c1
    x, i, -1.2%
> CCOc1ccc(OCC)c(NC(=O)CSCC(=O)O)c1
    0.69, i, 1.3%
> CCCn1c(CNC(=O)c2cccs2)nc2ccccc21
    -1.2, i, 4.5%
> O=C(CN1C(=O)c2ccccc2C1=O)Nc1ccccc1F
    0.5, i, 3.2%
> O=C1c2ccccc2C(=O)N1c1ccc(S(=O)(=O)N2CCN(c3ccccc3)CC2)cc1
    -0.04, i, -5.1%
> Cc1cccc2cc(COC(=O)c3cccnc3)c(=O)[nH]c12
    0.49, i, -4.2%
> Cc1cccc2cc(C(c3nnnn3CC3CCCO3)N3CCCc4ccccc43)c(=O)[nH]c12 (stereo unspecified)
    -0.16, i, 7.0%
> COC(=O)C1=C(C)NC2=C(C(=O)c3ccccc32)C1c1ccc(-c2ccc(C(=O)O)cc2)o1 (stereo unspecified)
    0.76, i, -25%
> CCn1cc(S(=O)(=O)CC(=O)Nc2ccc3c(c2)OCO3)c2ccccc21
    0.82, i, -3.8%
> CCCN(CCC)CCNC(=O)C1CCCN(S(=O)(=O)c2ccc3c(c2)oc(=O)n3C)C1 (stereo unspecified)
    1.7, i, 9.4%
> CCNC(=O)CC1SC(=Nc2ccc(C)cc2)N(CC)C1=O (stereo unspecified)
    x, i, 1.6%
> CCc1c(O)cc2n(c1=O)-c1ccc(Cl)cc1C2(C)C
    x, i, 5.1%
> O=C(NCc1ccncc1)c1cccc(Cn2cc(Br)cn2)c1
    0.56, i, -6.6%
> Cc1cccc(OCCCC(=O)O)c1
    -0.6, i, 4.9%
> CCS(=O)(=O)N1CCC(C(=O)NCCc2ccc(C)cc2)CC1
    -1.1, i, 5.9%
> CN1CCN(/C(=N\O)c2nonc2N)CC1
    -0.68, i, -5.3%
> CCOC(=O)c1sc2nc(CC(=O)OC)nc(NCc3ccco3)c2c1C
    -0.25, i, -4.1%
> O=C(NCC1CCCO1)c1ccccc1 (stereo unspecified)
    x, i, 1.4%
> Cc1cc(C)nc(SCc2nnc(SCC(=O)Nc3ncc(C)s3)n2Cc2ccco2)n1
    0.45, i, 3.5%
> Cc1occc1-c1nnc(SCCCC(=O)c2ccc(F)cc2)n1C
    -1.8, i, -0.7%
> COc1ccc(C(=O)OC(C)CN2CCOCC2)cc1OC (stereo unspecified)
    1.7, i, -0.5%
> COC(=O)c1nn(-c2ccc(-c3ccccc3)cc2)cc1O
    0.04, 1.5µM*, 2.0%
> O=C(Cc1cccs1)Nc1nnc(Cc2ccc(F)cc2)s1
    x, i, -4.2%
> O=C(Nc1ccc2c(c1)OCO2)C1CCCCN1S(=O)(=O)c1ccc(F)cc1 (stereo unspecified)
    -0.03, i, -1.0%
> CCCSc1nnc(Nc2ccccc2C)s1
    x, i, -2.4%
> O=C(c1cc2ccccc2oc1=O)N(Cc1ccccc1)Cc1ccc2c(c1)OCO2
    x, i, -1.4%
> Cc1cc(C)nc(N(C#N)CC(=O)c2ccccc2)n1
    0.97, i, -2.9%
> CCOc1ccc(CSC(CC(=O)O)C(=O)O)cc1 (stereo unspecified)
    -0.06, i, -7.0%
> O=C(CSc1nnc(COc2ccccc2)o1)N1CCN(c2ccccc2)CC1
    -0.25, i, -3.0%
> COCCN(CCOC)c1cc(C)c(C#N)c2nc3ccccc3n12
    0.45, i, -0.7%
> OC(COc1ccc2ccccc2c1)CN1CCOCC1 (stereo unspecified)
    -1.1, i, -0.7%
> Cc1cc(C)nc(N2CCN(c3ncnc4c3cnn4Cc3ccc(Cl)cc3Cl)CC2)n1
    -0.55, i, -0.2%
> CC(C)n1nnnc1C(c1ccc(F)cc1)N1CCN(C2CCCC2)CC1 (stereo unspecified)
    1, i, -2.0%
> CCOc1ccc(/C(O)=C2\C(=O)C(=O)N(c3cc(C)on3)C2c2ccccc2OC)cc1 (stereo unspecified)
    -0.46, i, -4.0%
> COc1ccc(OC)c(CNC(=O)CCc2nc(-c3cccs3)no2)c1
    -0.05, i, 5.0%
> O=C(NCCCN1CCCCC1)c1ccc2c(c1)NC(=O)C(N1CCOCC1)S2 (stereo unspecified)
    x, i, 4.6%
> Cc1sc2ncn(CC(=O)NCC(=O)N(C)C3CCCCC3)c(=O)c2c1C
    x, i, -4.7%
> O=c1c2cc(Cl)ccc2[nH]c(=S)n1Cc1ccco1
    -0.64, i, -4.2%
> O=C(NCc1ccco1)c1cccc(S(=O)(=O)N2CCCCC2)c1
    0.83, i, 8.3%
> COCc1ccccc1Cn1cnc2c1c(=O)n(C)c(=O)n2C
    -0.9, i, -3.0%

At a glance, 3 of the compounds above:
Order of results – WNV NS2B-NS3 inh, MT1-MMP reporter, Hsc70 ATP site
> CCCn1c(CNC(=O)c2cccs2)nc2ccccc21
    -1.2, i, 4.5%
> O=C(CN1C(=O)c2ccccc2C1=O)Nc1ccccc1F
    0.5, i, 3.2%
> O=C1c2ccccc2C(=O)N1c1ccc(S(=O)(=O)N2CCN(c3ccccc3)CC2)cc1
    -0.04, i, -5.1%

Other structures
Order of results – WNV NS2B-NS3 inh, MT1-MMP reporter, Hsc70 ATP site
> CCOc1cc2[nH]c(=O)n(CCCCCC(=O)NCc3ccc4c(c3)OCO4)c(=O)c2cc1OCC
    0.82, i, -11%
> CCc1ccc(NC(=O)Cn2c(=O)n(CCCC(=O)NCc3ccco3)c(=O)c3ccccc32)cc1
    -1.1, i, 6.5%
> CCOC(=O)c1ccc(NCC(O)COc2ccccc2)cc1 (stereo unspecified)
    -0.76, i, -5.0%
> COc1ccc(C2C(C(=O)c3ccco3)=C(O)C(=O)N2CCc2ccccc2)cc1OC (stereo unspecified)
    0.21, i, 7.3%
> O=C(CSc1ncn[nH]1)Nc1nnc(-c2ccccc2)s1
    1.9, i, -0.3%
> COC(=O)CC1Oc2ccccc2N(Cc2ccccc2)C1=O (stereo unspecified)
    0.58, i, 2.4%
> CC(=NCc1cccnc1)C1=C(O)c2ccccc2C1=O
    -1.2, i, 0.6%
> CCCCCC1CC(CC#CCN2CCOCC2)C(=O)O1 (stereo unspecified)
    -0.97, i, -8.7%
> Cc1nc2cc(N3CCCCC3)c(NC(=O)c3cccnc3)cc2c(=O)n1Cc1ccccc1
    1.4, i, -24%
> Cn1ccnc1SCC(=O)c1cc2ccccc2o1
    0.14, i, -11%
> COc1ccc(-c2nnn(CCC(=O)O)n2)cc1
    x, i, 1.6%
> O=C(O)CCC1COc2ccccc2O1 (stereo unspecified)
    0.38, i, 7.8%
> O=S(=O)(c1ccc(OCC(O)CN2CCN(c3ccc(F)cc3)CC2)cc1)N1CCOCC1 (stereo unspecified)
    1.3, i, -0.7%
> O=C(COC(=O)C1CC2C=CC1C2)NCc1ccco1 (stereo unspecified)
    -0.27, i, 0.0%
> COc1ccccc1NS(=O)(=O)c1ccc(O)c(C(N)=O)c1
    -1.1, i, 12%
> COc1cc(OC)c2c(C)cc(=O)oc2c1
    0.35, i, 3.4%
> CC1CN(C(=O)CN2C(=O)NC3(CCCCCCC3)C2=O)CC(C)O1 (stereo unspecified)
    0.35, i, -3.3%
> O=C(CCCOc1ccc(Cl)cc1Cl)N1CCN(c2ccccn2)CC1
    0.34, i, 3.0%
> Cc1ccc(-n2nc3c(c2NC(=O)C(C)(C)C)CSC3)c(C)c1
    -1, i, -0.5%
> N#Cc1c(N)n(CCc2ccc(F)cc2)c2nc3ccccc3nc12
    x, i, -0.7%
> COc1ccc(C2CC(c3ccc(Cl)cc3)n3nc(N)nc3N2)cc1 (stereo unspecified)
    0.43, i, -0.3%
> Oc1ccccc1CNc1cnc2ccccc2c1
    x, i, 2.6%
> COc1ccccc1-c1nc(C#N)c(N2CCN(c3cccc(Cl)c3)CC2)o1
    -0.63, i, 1.0%
> COc1cccc(-c2nc(NC(C)C)c3ccccc3n2)c1O
    -0.35, i, 1.2%
> CC(=O)N1c2ccc3ccccc3c2C(C)CC12CCCCC2 (stereo unspecified)
    x, i, 0.9%
> COc1ccc(/C=C/C(O)=C2/C(=O)N(C)C3(C)CC2c2ccccc2O3)cc1 (stereo unspecified)
    -0.28, i, 0.5%
> O=C(Cn1cccc1C(=O)c1ccccc1)NCc1cccnc1
    1.9, i, -7.3%
> Cc1cc(NS(=O)(=O)c2ccc(Cl)cc2)nn1CC(=O)NCc1ccco1
    -0.08, i, 2.4%
> CCOCCc1nnc(NC(=O)c2cc(OC)c(OC)c(OC)c2)s1
    0.07, i, -0.2%
> CC(=O)NCC(=O)N(C)C(C(=O)Nc1ccc2c(c1)OCCO2)c1ccccc1 (stereo unspecified)
    -0.72, i, 1.5%

5 of the compounds above, as tab-separated lines.
SMILES	WNV NS2B-NS3 inh	MT1-MMP reporter	Hsc70 ATP site
Cc1nc2cc(N3CCCCC3)c(NC(=O)c3cccnc3)cc2c(=O)n1Cc1ccccc1	1.4	i	-24%
Cn1ccnc1SCC(=O)c1cc2ccccc2o1	0.14	i	-11%
COc1ccc(-c2nnn(CCC(=O)O)n2)cc1	x	i	1.6%
O=C(O)CCC1COc2ccccc2O1 (stereo unspecified)	0.38	i	7.8%
O=S(=O)(c1ccc(OCC(O)CN2CCN(c3ccc(F)cc3)CC2)cc1)N1CCOCC1 (stereo unspecified)	1.3	i	-0.7%

Further results
Order of results – WNV NS2B-NS3 inh, MT1-MMP reporter, Hsc70 ATP site
> COc1cc(C2Nc3cc(Cl)c(S(N)(=O)=O)cc3S(=O)(=O)N2)cc(OC)c1OC (stereo unspecified)
    1.6, i, 5.3%
> CC1(C)NC(=O)N(CCCCOc2ccc(Cl)cc2)C1=O
    x, i, 1.7%
> CCCCSc1nc(NCc2ccco2)c2c3c(sc2n1)COC(C)(C)C3
    x, i, -3.1%
> Cc1cccc(-n2ncc3c(N4CCC5(CC4)OCCO5)ncnc32)c1
    0.02, i, 1.5%
> COC(=O)c1ccc(-c2ccc(C(=O)N3CCCN(C)CC3)cc2)cc1
    0.28, i, 2.5%
> COC(=O)c1cccc(S(=O)(=O)N(Cc2ccco2)Cc2cc3cc(OC)c(OC)cc3[nH]c2=O)c1
    x, i, 2.3%
> C[N+]12CCC(CC1)C(OC(=O)C(O)(c1ccccc1)c1ccccc1)C2 (stereo unspecified)
    -0.19, i, 0.1%
> O=C(CSc1nnc(-c2cccnc2)n1Cc1ccccc1)NCc1ccco1
    1.6, i, -6.3%
> C=C(C)CN1C(=O)C(O)(CC(=O)c2ccc3c(c2)OCCO3)c2ccccc21 (stereo unspecified)
    -1.1, i, 4.2%
> CC1CCCC(C)N1C(=O)Cn1c(=O)sc2ccccc21 (stereo unspecified)
    0.69, i, 5.4%
> Cc1ccc(S(=O)(=O)O/N=C2\CCCc3ccccc32)cc1
    x, i, 0.4%
> CCn1c(SC)nnc1-c1sc2cc(Cl)ccc2c1Cl
    0.56, i, -2.6%
> Cc1nnc(SCC(=O)N2CCc3ccccc3C2)s1
    x, i, 1.3%

Screening results: PubChem BioAssay, several laboratories
